CBX7 AlphaScr: CBX7 chromodomain binding inhibitors, primary screen, biochemical, AlphaScreen; normalised signal (fraction of DMSO) (test concentration not listed); 1.1% of 66,000 active; AlphaScreen His6-CBX7 / biotin-H3K27me3 peptide binding; hits give low values; Chromobox protein homolog 7 (Homo sapiens), O95931; in the data active = normalised signal below about 0.5;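 also: 100 nL library stock added to about 20 µL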
Target sequence (O95931 whole entry, looked up): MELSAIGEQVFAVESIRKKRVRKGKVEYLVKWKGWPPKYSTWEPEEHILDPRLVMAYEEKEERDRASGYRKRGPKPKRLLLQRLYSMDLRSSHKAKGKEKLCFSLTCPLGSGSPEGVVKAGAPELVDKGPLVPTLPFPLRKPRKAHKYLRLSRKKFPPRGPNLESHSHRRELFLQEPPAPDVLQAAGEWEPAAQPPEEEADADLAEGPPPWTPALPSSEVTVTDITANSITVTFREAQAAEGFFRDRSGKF
CBX7 AlphaScr z-score: further read-out of CBX7 AlphaScr, marked with its call; z-score; measured here: z-score of CBX7 signal; some inactives read as strong as hits; reference of the scale not given here;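 same signal on another scale; lower means less binding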
* hit, by the source's call. The list is partial; the hit share may differ from the screen's.

structure | CBX7 AlphaScr | CBX7 AlphaScr z-score
CCN(CC)S(=O)(=O)c1ccc(C(=O)Nc2nc(-c3ccc(C)cc3C)cs2)cc1 | 1 | 0.41
CC(C)(C)n1cnc2cc(NCc3ccc(Br)cc3)ccc21 | 0.78 | -4.3
CC1(C(=O)NC2CCCC2)CCC(=O)N1CCc1ccccc1 (configuration not stated) | 1 | 0.76
CCOC(=O)c1c(NC(=O)c2cncc(Br)c2)sc2c1CCC2 | 1.1 | 1.7
O=C(NCCCn1ccnc1)c1cc(C2CC2)on1 | 1.1 | 0.092
CCCOc1cccc(C(=O)N(Cc2ccccc2)C2CCS(=O)(=O)C2)c1 (configuration not stated) | 1 | 0.33
CC(C)CCNC(=O)CCn1nc(-c2ccccc2)ccc1=O | 0.99 | -0.28
COc1cc(OC)c(NC(=O)CCNC(=O)Cn2ccc3ccccc3c2=O)cc1Cl | 1.1 | 1.4
O=S(=O)(c1ccccc1)N1CCN(c2ccc3nncn3n2)CC1 | 1 | 0.07
CCN(CC)S(=O)(=O)c1ccc2c(c1)N(CC(=O)NCCN1CCCCC1C)C(=O)CS2 (configuration not stated) | 1.1 | 2.4
CC1(C)CC(=O)c2cc(OCC(=O)NCc3cccnc3)ccc2O1 | 0.91 | -1.8
Cc1cccc2nc(CSc3nc4ccccc4[nH]3)cn12 | 0.9 | -1.6
COc1ccccc1OCCCCn1c(-c2ccc(Cl)cc2)nc2ccccc2c1=O | 1.2 | 2
CCN(CC)S(=O)(=O)c1cc(-c2n[nH]c(=O)c3ccccc23)ccc1C | 1.1 | 1.6
CCCCNC(=O)C1CCCN(S(=O)(=O)c2c(C)noc2/C=C/c2cccs2)C1 (configuration not stated) | 1.1 | 2.5
Cn1nc(-c2ccc(Cl)cc2)c2cc(C(=O)NCCN3CCOCC3)sc21 | 1.1 | 0.52
COc1cccc(-n2c(Cc3cc(=O)[nH]c(=O)[nH]3)nnc2SC(C)c2ccccc2)c1 (configuration not stated) | 1 | 0.55
COc1ccccc1CNC(=O)c1cc2c(-c3ccc(Cl)cc3)nn(C)c2s1 | 1.1 | 0.33
COc1ccc(/C=C/c2cc(C(F)(F)F)on2)cc1 | 1.2 | 4.1
Cc1nc2cc(-c3ccccc3)nn2c(C)c1CCC(=O)NCc1cccs1 | 1 | 0.97
Cc1ccc(-c2cc(C(=O)NCCN3CCOCC3)c3ccccc3n2)s1 | 1 | 0.27
O=C(NCCCc1ccccc1)c1ccc2c(c1)NC(=O)c1ccccc1S2 | 1 | 0.39
Cc1nn2c(C(F)(F)F)cc(-c3ccc(Cl)cc3)nc2c1C(=O)NC(C)C | 0.93 | -0.89
Cc1ccc(-c2nnc(N3CCN(C)CC3)c3ccccc23)cc1C | 0.99 | -0.28
COc1ccc(C(=O)N(Cc2ccc(N(C)C)cc2)C2CCS(=O)(=O)C2)cc1 (configuration not stated) | 1.1 | 0.83
COc1ccc(OCC(=O)Nc2ccc(-c3nc4ccccc4s3)cc2)cc1 | 0.97 | -0.11
O=C(c1cc(-c2ccc(Cl)cc2)on1)N1CCc2ccccc2C1 | 1.1 | 0.32
Cc1cccn2cc(COc3cccc([N+](=O)[O-])c3)nc12 | 0.7 | -1.2
COc1ccc(-c2nc3cc(C)ccn3c2NC(=O)c2ccc(C)cc2)cc1 | 0.8 | -0.35
COc1ccccc1CNC(=O)c1ccc2c(c1)N(Cc1cccc(F)c1)C(=O)c1ccccc1S2 | 0.98 | -0.59

Structural class: the entries above with a CF3 group
structure | CBX7 AlphaScr | CBX7 AlphaScr z-score
COc1ccc(/C=C/c2cc(C(F)(F)F)on2)cc1 | 1.2 | 4.1
Cc1nn2c(C(F)(F)F)cc(-c3ccc(Cl)cc3)nc2c1C(=O)NC(C)C | 0.93 | -0.89

Later entries.
structure | CBX7 AlphaScr | CBX7 AlphaScr z-score
CC(C)OCCCNC(=O)c1ccc2c(c1)NC(=O)c1ccccc1S2 | 1 | 0.03
O=C(Nc1nc2ccccc2s1)c1ccc(NC(=O)C2CCCCC2)cc1 | 1 | 0.067
Cn1ccnc1SCC(=O)Nc1nn(-c2ccccc2)nc1C(N)=O | 0.89 | -1.6
CC(NC(=O)c1ccccc1)c1nc2ccccc2[nH]1 (configuration not stated) | 1 | 0.74
O=C(CC1Oc2ccc(Cl)cc2NC1=O)NCCCc1ccccc1 (configuration not stated) | 1 | 1.9
CC(C)CCSc1nc(N2CCOCC2)c2c(c1C#N)CC(C)(C)OC2 | 1.1 | 3.4
CCOc1ccc(C(=O)Nc2ccc3nc(N4CCCCC4)cc(C)c3c2)cc1 | 1.1 | 1.4
Cn1nc(CC(=O)Nc2c(F)cccc2F)c2ccccc2c1=O | 0.88 | -1.7
O=C(CSc1nnc(-c2cccs2)n1CCc1ccccc1)Nc1ccc(F)cc1 | 0.8 | -2
Cc1cccc(NC(=O)c2cc(-c3ccccc3Cl)nc3ccccc23)c1 | 0.9 | -0.72
Cn1c(=N)n(CCOc2ccccc2Cl)c2ccccc21 | 1 | 0.69
CCOc1ccc(NC(=O)c2c[nH]n3c(=O)cc(C4CCN(C(=O)OC(C)(C)C)CC4)nc23)cc1 | 0.94 | -0.14
O=C(NCCCn1ccnc1)c1cc(-c2cccc(O)c2)on1 | 0.99 | -0.27
CCOc1ccc2ccccc2c1C(=O)NCCc1cc2ccc(C)cc2[nH]c1=O | 1 | 0.13
CC(=O)Cc1nc(-c2ccccc2)no1 | 0.98 | -0.5
Cc1nc(Nc2ccc(F)cc2F)c2cc(C)sc2n1 | 1 | 1.8
CCOc1ccc(-n2nc(C(=O)N(C)c3ccccc3OCC)c3ccccc3c2=O)cc1 | 0.7 | -1.9
COC(=O)c1cnn2c(C)c(Cc3cccc(F)c3)c(C)nc12 | 0.99 | -0.34
CC(=O)N(C)c1ccc(NC(=O)C23CC4CC(C2)CC(n2cnc(Cl)n2)(C4)C3)cc1 | 1 | 0.59
CCOC(=O)c1c(NC(=O)c2ccccc2OC)sc2c1CCCCC2 | 1.5 | 20
COc1cccc(-c2nc(SCC(=O)Nc3ccc(F)cc3)c(-c3ccccc3)[nH]2)c1 | 0.91 | -4.3
Cc1oc(-c2ccccc2F)nc1Cn1c(SCc2cccc(F)c2)nc2ccncc21 | 0.88 | -3.6
COc1ccc(OC)c(NC(=O)c2c(NCc3ccc(OC)c(OC)c3)sc3c2CCCC3)c1 | 0.81 | -5
CC(=O)Nc1nonc1NC(=O)CSc1nc2ccccc2[nH]1 | 1.2 | 5
COCCn1c(=O)[nH]c2cc(C(=O)NCc3cccc(Cl)c3)ccc2c1=O | 1 | 0.8
COc1ccccc1-c1cc(C(=O)Nc2cccnc2)no1 | 1 | 1.3
O=C(NCc1cccc(Cl)c1)c1nc2c(nnn2Cc2cccs2)c(=O)[nH]1 | 0.96 | -0.87
CC1CCN(c2c(NCc3ccc(C(=O)NCCN(C)Cc4ccccc4)cc3)c(=O)c2=O)CC1 | 0.82 | -2.6
CCOc1ccc(NC(=O)CN(c2ccc(OC)cc2)S(=O)(=O)c2cccnc2)cc1 | 1.2 | 1.1
O=C(NCc1cccnc1)c1ccc2c(c1)N(Cc1ccccc1F)C(=O)CS2 | 0.98 | -0.71

Entries of single compounds, looked up by structure. Values in the order: CBX7 AlphaScr, CBX7 AlphaScr z-score
O=C(NCCCn1ccnc1)c1cc(-c2cccc(O)c2)on1 as listed: 0.99, -0.27
O=C(NCCCn1ccnc1)c1cc(C2CC2)on1 as listed: 1.1, 0.092
CCOc1ccc(-n2nc(C(=O)N(C)c3ccccc3OCC)c3ccccc3c2=O)cc1 as listed: 0.7, -1.9
CCOc1ccc(C(=O)Nc2ccc3nc(N4CCCCC4)cc(C)c3c2)cc1 as listed: 1.1, 1.4

Three compounds from above, ordered by their value in CBX7 AlphaScr z-score, falling:
SMILES	CBX7 AlphaScr z-score
Cc1nc(Nc2ccc(F)cc2F)c2cc(C)sc2n1	1.8
CC(=O)N(C)c1ccc(NC(=O)C23CC4CC(C2)CC(n2cnc(Cl)n2)(C4)C3)cc1	0.59
CC(C)OCCCNC(=O)c1ccc2c(c1)NC(=O)c1ccccc1S2	0.03

The list continues:
structure | CBX7 AlphaScr | CBX7 AlphaScr z-score
COc1ccc(C(=O)Nc2ncc(Cc3cccc(Cl)c3)s2)cc1OC | 1 | 0.07
COc1ccc2nc(N3CCCC(C(=O)NCc4cccs4)C3)sc2c1 (configuration not stated) | 1.1 | 0.85
CCOCCCNC(=O)c1ccc2c(c1)ncn2-c1cc(OC)c(OC)c(OC)c1 | 1 | 0.34
O=C(NCc1ccc2c(c1)OCO2)c1cc2c(s1)-c1ccccc1OC2 | 0.99 | -0.27
CC1CCc2nc(NC(=O)c3ccc(N(C)C)cc3)sc2C1 (configuration not stated) | 1.1 | 2.2
COCCNc1ccc2nnc(-c3ccc(F)cc3)n2n1 | 1.1 | 0.75
COCc1nnc(NC(=O)c2ccc(S(=O)(=O)N3CCCC(C)C3)cc2)o1 (configuration not stated) | 0.79 | -5.5
O=C(COc1ccccc1)Nc1c(-c2cccs2)nc2ccccn12 | 1 | 0.23
CCN(CC)c1ccc(C2C(C(=O)Nc3ccc(C)cn3)=C(C)NC3=C2C(=O)CCC3)cc1 (configuration not stated) | 0.77 | -0.49
O=C(NCc1cccnc1)c1cc(-c2cccc(O)c2)on1 | 1 | 1.5
Cc1ccc(-c2noc(CCC(=O)NCCCN3CCC(C)CC3)n2)cc1 | 0.95 | -0.48
COc1cccc(-c2nc(CS(=O)(=O)CC(=O)NC3CC3)c(C)o2)c1 | 1.1 | 0.54
CCc1ccc(OCC(=O)Nc2ccc(Cl)c(-c3nc4cc(C)ccc4o3)c2)cc1 | 1 | 0.012
COc1ccc(N2CCN(CCCNC(=O)C3CCC(=O)N3Cc3ccc(F)cc3)CC2)cc1 (configuration not stated) | 0.75 | -6.5
Cc1ccc(S(=O)(=O)c2cn(Cc3ccccc3Cl)c3ccc(F)cc3c2=O)cc1 | 0.95 | -1.9
Cc1nc(NC2=NCCC(=O)N2)nc2ccccc12 | 1 | 0.45
CCOCCCN1C(=O)Cn2cccc2C1C(=O)NC1CCC(C)CC1 (configuration not stated) | 1 | -0.093
O=C(Nc1nc(COc2ccccc2)cs1)c1ccncc1 | 0.97 | -0.25
C=CCNC(=O)C1C2C=CC3(CN(Cc4ccccc4Cl)C(=O)C13)O2 (configuration not stated) | 0.96 | -1
CC(C)CN(CCNC(=O)Cn1ncc2ccsc2c1=O)CC(C)C | 0.98 | -0.67
COc1cc2c(cc1OC)C1C(C(=O)Nc3ccc4c(c3)OCO4)c3ccccc3C(=O)N1CC2 (configuration not stated) | 1.1 | 1.6
CC(=O)Nc1ccc(Oc2ncnc3sc4c(c23)CCCC4)cc1 | 1 | 0.043
CCSc1nnc(NC(=O)c2ccc(C)cc2)s1 | 1.3 | 2.6
Clc1ccc(-c2noc(CCc3ccccc3)n2)cc1 | 1.4 | 14
Cc1ccc(-n2cc(-c3ccccc3)c3c(NCCc4ccc(S(N)(=O)=O)cc4)ncnc32)cc1Cl | 0.93 | -2
Cc1ccccc1CNC(=O)c1ccc2nc(N3CCOCC3)sc2c1 | 0.98 | -0.84
CCCOc1ccc(Cc2nc3cc(C)c(C)cc3[nH]c2=O)cc1 | 1.1 | 1.4
CCOC(=O)c1cc(-c2ccc(OC)cc2)n(CCC(=O)NCCc2ccc(OC)c(OC)c2)c1C | 0.91 | -1
COc1ccccc1-c1cc2nc(C)c(CCC(=O)Nc3ccccc3F)c(C)n2n1 | 1 | 0.36
O=C(O)c1ccc(-n2nnnc2Oc2ccccc2C(=O)N2CCOCC2)cc1 | 1 | 2

structure | CBX7 AlphaScr | CBX7 AlphaScr z-score
O=C(Nc1ccc(Cl)cc1)c1cnc2sccn2c1=O | 1 | -0.019
Nc1c(-c2nc3ccccc3[nH]2)nnn1Cc1ccccc1 | 0.95 | -1.2
CCn1c(C2CC(=O)N(c3ccc(C)c(C)c3)C2)nc2ccccc21 (configuration not stated) | 1.1 | 0.45
O=C(CC1Sc2ccccc2NC1=O)Nc1ccc2c(c1)OCCO2 (configuration not stated) | 1.2 | 3
CCCCCOc1ccc(C(=O)NCC2(c3ccccc3)CCOCC2)cc1 | 1 | 1
COc1ccc(NC(=O)c2ccc3c(c2)C(=O)N(c2cc(C)on2)C3=O)c(OC)c1 | 1 | 0.21
C=CCc1c(C)nc2nc(SCC(=O)Nc3cccc(OC)c3)nn2c1C | 0.86 | -0.55
COc1ccc(-c2cc3nc(C)cc(C)n3n2)c(OC)c1 | 0.94 | -1.1
CSc1ccc(-c2nc(-c3ccccc3)c(-c3ccc(F)cc3)[nH]2)cc1 | 0.71 | -7.3
COc1ccc(-c2cc(C(=O)NCCCN3CCOCC3)no2)cc1 | 0.94 | -0.2
CCCCNC(=O)c1ccc2c(c1)N=C(CC)c1cc(Cl)ccc1S2 | 1.2 | 4
O=C(C1CC(c2ccc(F)cc2)=NO1)N1CCC(Cc2ccccc2)CC1 (configuration not stated) | 1.1 | 2.2
COc1cc(NC(=O)CN(C)S(=O)(=O)c2cnc[nH]2)cc(OC)c1 | 1 | 0.083
COc1ccc(OC)c(NC(=O)CC2NCCNC2=O)c1 (configuration not stated) | 1 | -0.0049
Cc1ccc(-n2cc(-c3ccccc3)c3c(Nc4ccc(F)cc4)ncnc32)cc1 | 1 | 1.3
COc1ccc(NC(=O)c2c(NCc3cccc(F)c3)sc3c2CCCC3)c(OC)c1 | 0.73 | -5.3
Cc1cc(Cl)ccc1OCc1nc(-c2ccc(OCC(N)=O)cc2)no1 | 0.96 | -0.5
CCOc1ccc(CNc2ccc3c(c2)ncn3-c2ccc(OC)cc2)cc1 | 0.75 | -1.2
Cc1oc(-c2ccccc2F)nc1CN1CCC(C(=O)NC(C)C)CC1 | 1 | -0.077

Bioassay records as filed in PubChem.
